HIV TAR-Tat: HIV-1 TAR-Tat binding disruption | HIV-1 TAR RNA, Tat peptide displacement FRET; active compounds read high | z-score (test concentration not listed) | 100,000 tested, 0.6% active;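 note: score is relative to mean and SD of negative controls; some compounds called inactive have numbers as strong as hits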
CDC25B-CDK2 inh: human CDC25B-CDK2/CyclinA binding inhibition | P30305+P24941 | HTRF CDC25B-CDK2/CyclinA binding, anti-His/anti-Flag; active compounds read high | z-score (concentration not given with the values) | 94,000 tested, 0.72% active | AID 1259370;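 note: score is relative to mean and SD of negative controls; strong numbers were not always called active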
Active calls of the source: *; . = no result given; & = joins results of further samples.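 Rule for the calls: active = z-score from 3 up in half or more of its runs; inactive = the rest.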 Compounds as they come; any-hit rate near 0.94%.

SMILES	HIV TAR-Tat	CDC25B-CDK2 inh
O=C(CN1C(=O)CCSc2ccccc21)NCc1ccco1	-0.63	-2
COCCNC(=O)C1CCCN(C2N=CNc3onc(C)c32)C1 (configuration not stated)	-0.44	-0.41
CCN(CC)c1ccc2cc(C(=O)c3cc4ccc(N(CC)CC)cc4oc3=O)c(=O)oc2c1	.	-0.71
Cc1cc(C)n(-c2cc(Nc3ccc(C)c(C)c3)ncn2)n1	0.89	0.62
CC(=O)N1N=C(c2c(C)n(C)n(-c3ccccc3)c2=O)OC1c1csc2c1CCCC2 (configuration not stated)	0.47	.
O=C(Nc1nc2c(s1)CCCC2)c1ccc2c(c1)CC(c1ccccc1)OC2=O (configuration not stated)	1.1	0.14
O=C(NC1CC1)c1cccn2c(-c3ccc(F)cc3)nnc12	1.2	.
COc1ccc(OC)c(-c2noc(CSc3nc4ccccc4[nH]3)n2)c1	-0.9	-0.42
CCN(CCN(C)C)C(=O)c1noc2c1COc1ccccc1-2	0.92	0.11
COCc1nc(-c2ccc(-c3ccc(C)cc3)nc2OC)no1	-3.8	-0.32
Cc1ccc(N(C(=O)c2ccco2)C2C=CS(=O)(=O)C2)cc1 (configuration not stated)	0.09	-1.7
O=C(CCS(=O)(=O)c1ccc2c(c1)CCN2C(=O)C1CC1)N1CCc2ccccc2C1	0.61	.
CC(=O)N1CCC2(CC1)OC(=O)C(C)=C2C(=O)NCCN1CCCCC1C (configuration not stated)	0.57	.
NC1=NC(c2cccs2)n2c(nc3ccccc32)N1 (configuration not stated)	0.84	0.43
COc1ccc(CCN=Cc2ccc3c(c2)OCO3)cc1OC	.	-0.07
Cc1ccc(CNc2n[nH]c(-c3ccco3)n2)cc1	1.4	-1.8
COc1ccc(OC)c(NC(=O)c2cnc(SC)nc2C(F)(F)F)c1	1.4	.
O=S(=O)(c1cccc2nsnc12)N1CCCN(c2nc3cccnc3s2)CC1	0.54	.
CCCCCCn1cnc2c1c(=O)[nH]c(=O)n2C	0.76	-0.26
CCc1nn2c(N)c(C#N)cnc2c1-c1ccccc1	-0.87	-2
Cc1cccc(C2CCCN2C(=O)c2cnn3c(C(F)F)cc(C4CC4)nc23)c1 (configuration not stated)	1.8	-0.06
Cn1c(=O)c(=O)n(CC(=O)O)c2ncccc21	0.13	0.21
Cc1cc(=O)n2nc(N(C)CC(=O)NCC3CCCO3)sc2n1 (configuration not stated)	0.7	0.14
Cc1ccc(Nc2cc(N3CCN(S(C)(=O)=O)CC3)nc(C)n2)cc1	1.4	-1.2
CCCS(=O)(=O)N1CCN(c2ncnc3c2nnn3-c2ccc(F)cc2)CC1	1.1	.
CSc1ccc2c(c1)N(CCC1CCCCN1C)c1ccccc1S2 (configuration not stated)	1.3	-2.9
CC(C)CCn1c(SCC(N)=O)nc2nccnc2c1=O	0.59	-2.3
Cc1cc2c(cc3c(SCC(=O)Nc4ccc(C)c(C)c4)nncn32)o1	0.19	.
Cc1nc(C(=O)/C=C/N(C)C)cs1	.	-2
CCC(CC)C(=O)NCCNC(=O)c1nonc1N	1.3	-0.09
Cc1sc(NC(=O)C2C3CCC(O3)C2C(=O)O)c(C(=O)OC(C)C)c1-c1ccc(Cl)cc1 (configuration not stated)	.	-1.3
O=C(OCCCCCOc1ccc(Cl)cc1)c1ccco1	.	-2.2
O=C(Nc1ccc2c(c1)OCO2)N1CCCC1c1ccco1 (configuration not stated)	1.2	-2
Cc1ccc2oc(=O)n(Cc3ccccc3)c2c1	0.15	-1.2
O=C(Cn1c(=O)oc2cc(S(=O)(=O)N3CCCC3)ccc21)Nc1nccs1	-0.04	-1.4
COc1cc(NC(c2ccccc2)c2nnc(-c3ccccc3F)o2)cc(OC)c1 (configuration not stated)	0.14	-0.51
CCOC(=O)c1cnc(Nc2nc(C(C)(C)C)cs2)nc1C	.	-0.26
O=C(O)CCCn1c(=O)[nH]c2cc3c(cc2c1=O)OCO3	-0.27	-1.3
COC(=O)C1=C(C(=O)c2ccccc2)C(c2ccccc2OC)n2nnnc2N1 (configuration not stated)	3.1	-0.83
CC(=O)c1cccc(NC(=O)CC2S\C(=N/N=C/C=C/c3ccccc3)NC2=O)c1 (configuration not stated)	.	-4
COc1ccc(-c2onc(C)c2C)cc1S(=O)(=O)Nc1ccc(C)cc1C	0.13	.
Clc1ccc(OCc2nn3c(Cc4ccccc4)nnc3s2)cc1	-0.16	0.42
CCc1ccc(C2CC(=O)Nc3c2c(C)nn3-c2ccc3nnc(C)n3n2)cc1 (configuration not stated)	2	.
O=C1c2ccccc2C(=O)C1c1ccc(Br)cc1	0.87	-1
CCc1nnc2n1NC(c1ccc(C)cc1)C(C(=O)Nc1cc(C)ccc1C)S2 (configuration not stated)	0.25	0.24
O=C(O)CCCc1c[nH]c2ccccc12	1.9	-2
COc1nc2ccccc2nc1OC	1.1	0.92
c1ccc(-c2nnn3c2nc(NCc2ccc4c(c2)OCO4)c2ccccc23)cc1	-0.92	-0.76

A section of the results above, as a working copy:
SMILES	HIV TAR-Tat	CDC25B-CDK2 inh
CCOC(=O)c1cnc(Nc2nc(C(C)(C)C)cs2)nc1C	.	-0.26
O=C(O)CCCn1c(=O)[nH]c2cc3c(cc2c1=O)OCO3	-0.27	-1.3
COC(=O)C1=C(C(=O)c2ccccc2)C(c2ccccc2OC)n2nnnc2N1 (configuration not stated)	3.1	-0.83

Next section.
SMILES	HIV TAR-Tat	CDC25B-CDK2 inh
CCCCCC(C)n1[nH]c(=O)c2c(C)cc(=O)[nH]c21 (configuration not stated)	1.4	-1.2
Cc1cc(=O)n2[nH]c(-c3ccco3)nc2n1	0.05	-0.55&0.51
Cc1c(NC(=O)C2CCCCC2)cccc1[N+](=O)[O-]	.	-2
CC1(C)CC(=O)C2=C(C1)Nc1nc(SCc3ccccc3Cl)[nH]c(=O)c1C2c1ccccn1 (configuration not stated)	.	-0.07
O=C1CCCc2cc(S(=O)(=O)N3CCCC3C(=O)N3CCc4ccccc43)ccc2N1 (configuration not stated)	0.47	.
Cc1ccc(-c2nnc3ccc(SCC(=O)Nc4nc(C)cs4)nn23)cc1	.	-2.5
COc1ccc(C(=O)c2cn(Cc3cccc(OC)c3)c3cc4c(cc3c2=O)OCCO4)cc1	2.8	-1.2
Cc1cc(-c2ccc(C)c(S(=O)(=O)NCCC3=CCCCC3)c2)on1	0.23	.
COc1cc2c(c(OC)c1)C(c1ccccc1Br)CC(=O)N2 (configuration not stated)	2.2	-0.71
CC(C)c1ccc2c(c1)[C@@H]1C=CC[C@@H]1[C@H](c1ccc(C(=O)O)cc1)N2	.	-0.29
O=C1CCc2cc(S(=O)(=O)N3CCN(c4ccccc4F)CC3)ccc2N1	.	0.43
O=C(c1c(F)cccc1F)N1CCCC1c1ccco1 (configuration not stated)	1.6	-1.2
O=C(Nc1nnc2n1CCS2)c1ccc(F)cc1F	-0.44	.
O=C(O)c1nccnc1C(=O)NC(c1ccccc1)c1ccccc1	.	-0.83
C=CCOc1ccccc1C1CC(=O)Nc2c(-c3ccc(Cl)cc3)csc21 (configuration not stated)	2.2	.
Cc1cccc(Cn2nc(C(C)(C)C)cc2C(=O)NNC(=S)NC2CCCCC2)c1	.	-1.7
COc1ccc(S(=O)(=O)Nc2ccc3c(c2)N(S(=O)(=O)c2ccc(F)cc2)CCC3)cc1F	0.92	.
N#Cc1cc2c(nc1SCc1ccccc1Cl)CCC2	-1.9	1.1
O=C(CSc1nc2ncccc2[nH]1)NCCc1nc2ccccc2[nH]1	1.2	-0.11
COc1ccc(-c2csc(CN3CCN(c4ccccc4OC)CC3)n2)cc1	.	-0.73
COCCCNC(=O)C1=C(C)C(=O)OC12CCN(S(C)(=O)=O)CC2	-0.13	.
Cc1cccc(-n2ncc3c(NCc4ccc5c(c4)OCO5)ncnc32)c1	0.22	.
Fc1ccccc1CN1CCCN(c2ncnc3onc(-c4ccc(Cl)cc4)c23)C1	2.6	.
NC(=O)C1CCN(C(=O)C2CCCN(c3nnc(-n4cccc4)s3)C2)CC1 (configuration not stated)	-1.6	-0.5
Cc1ccc(CC2CC(=O)N(c3ccncc3)C2=O)cc1 (configuration not stated)	0.45	-1.1
CC1=C(c2ccc(C)cc2)S(=O)(=O)NC1=NCc1cccc(Cl)c1	-0.7	-4.6
c1nc(Nc2ccc3c(c2)OCO3)c2[nH]cnc2n1	0.27	-2.5
Cc1ccc2cc3c(nc2c1)N(S(=O)(=O)c1ccc(Cl)cc1)CC3	-7.4	0.93
O=C(Cn1ncn2nc(-c3ccco3)cc2c1=O)NCc1cccnc1	0.87	-0.71
COC(=O)c1cc(NC(=O)c2nc(-c3ccncc3)no2)cc(C(=O)OC)c1	3.1	.
CCCCc1nc(-c2ccc(-c3ccc(C)cc3)nc2OC)no1	-3.8	-1.9
O=C(Cn1cnc2c(oc3ccccc32)c1=O)N1CCOCC1	1.3	-1.3
Cc1cc(C)cc(N2C(=O)CCC2(C)C(=O)NC2CCCC2)c1 (configuration not stated)	-1.2	-0.94
O=C(O)Cc1c(-c2ccccc2)c2cc(Cl)ccc2[nH]c1=O	-1.7	-1.6
CCN(CC)C(=O)c1cc2c(=O)n3cccc(C)c3nc2n1C	.	-1.6
COCc1c(Br)c(C)nc2sc3c(=O)n(-c4ccccc4OC)nnc3c12	0.19	-1.7
Cc1ccc(CN2CCC(CNS(=O)(=O)c3ccc(-c4cc(C)no4)s3)CC2)cc1	0.28	.
Cc1c(C(=O)NCCCN2CCOCC2)oc2ccc(S(=O)(=O)N3CCCC3)cc12	.	-0.06
Cn1c(NCc2ccc3c(c2)OCO3)nc2c1c(=O)n(Cc1ccccc1F)c(=O)n2C	-2.2	-1.4
CCN(CC)c1nc2c(S(=O)(=O)c3ccccc3)nnn2c2ccc(Cl)cc12	-1.2	-1.9
Cc1csc2nc(CSCC(=O)Nc3ccc(Cl)cc3)cc(=O)n12	0	.
O=C(O)c1ccccc1NS(=O)(=O)c1ccc2c3c(cccc13)C(=O)S2	-0.27	0.2
CCOc1ccc(-n2c(=O)c(C#N)cc3c(=O)n4ccccc4nc32)cc1	0.7	-0.3
CCN1C(=O)c2ccccc2Sc2ccc(NC(=O)NCCCN3CCOCC3)cc21	-2.2	-0.1
CCCCC[C@H](O)/C=C/[C@H]1[C@H](O)CC(=O)[C@@H]1C/C=C\CCCC(=O)O	2.5&1.4	.
Cc1cc(NC(=O)N2CCCn3nc(-c4cccn4C)cc32)ccc1Br	0.08	.
CCOC(=O)c1c(NC(=O)c2cc(=O)c3cc(C)cc(C)c3o2)sc(C)c1C	-0.97	-1.2
CCOC(=O)C1CCCN(c2c(NCCN3CCCC3)c(=O)c2=O)C1 (configuration not stated)	1.1	-0.51
CCN(CC)S(=O)(=O)c1ccc2c(c1)nc(CN1CCN(S(C)(=O)=O)CC1)n2C	1.3	.
Cc1ccc(-c2cc(C(=O)N(Cc3ccco3)Cc3ccc(C)o3)no2)cc1	-0.67	-1.7
CCNC(=O)N(CC)Cc1nc(-c2ccc(Cl)cc2)no1	0.68	-1.1
CCOc1ccc2nc(NC(=O)c3csnn3)sc2c1	1.2	-3
CCSc1ncc(Cl)c(C(=O)Nc2nc3ccc(S(C)(=O)=O)cc3s2)n1	2.4	-1.6
CCN1/C(=C\C(=S)Nc2ccccc2)Sc2ccccc21	.	-1.1
COc1ccc(C2CC(=O)N3CN(C(C)c4ccccc4)CSC3=C2C#N)cc1OC (configuration not stated)	1.1	5.5*
Cn1c(=O)n(C)c2cc(N3CCOCC3)c(NS(=O)(=O)c3ccc(C(C)(C)C)cc3)cc21	-0.76	-1.5
CSc1nn(-c2ccccc2)cc1-c1noc(-c2cccs2)n1	.	-1.3
CCCCNC(=O)c1cn(CC)c2ccc(S(=O)(=O)N3CCCCCC3)cc2c1=O	.	-3.7
Cc1cccc(S(=O)(=O)Nc2cccc(-c3ccc(S(C)(=O)=O)nn3)c2)c1	0.11	.
CC(C)(S)C(N)C(=O)O (configuration not stated)	0.39	.

Record cards (already shown).
Shown for CCN(CC)S(=O)(=O)c1ccc2c(c1)nc(CN1CCN(S(C)(=O)=O)CC1)n2C = HIV TAR-Tat: 1.3; CDC25B-CDK2 inh: .
Shown for CSc1nn(-c2ccccc2)cc1-c1noc(-c2cccs2)n1 = HIV TAR-Tat: .; CDC25B-CDK2 inh: -1.3

Another view of some results above.
Every second line gives: HIV TAR-Tat	CDC25B-CDK2 inh
CCN(CC)S(=O)(=O)c1ccc2c(c1)nc(CN1CCN(S(C)(=O)=O)CC1)n2C
 : 1.3	.
Cc1ccc(-c2cc(C(=O)N(Cc3ccco3)Cc3ccc(C)o3)no2)cc1
 : -0.67	-1.7
CCNC(=O)N(CC)Cc1nc(-c2ccc(Cl)cc2)no1
 : 0.68	-1.1

Later entries:
SMILES	HIV TAR-Tat	CDC25B-CDK2 inh
CCCCc1nn2cc(-c3ccc(OCC)cc3)nc2s1	1.7	-1.3
Cc1ccc(C(CNC(=O)c2cc(=O)c3ccc(Br)cc3o2)N(C)C)o1 (configuration not stated)	1	-1.1
CCCN(CCC)CCNC(=O)Nc1cn(C)c(=O)c2ccccc12	-1.5	.
Cc1cc(-c2ccc(C)c(S(=O)(=O)Nc3cccc4c3CCCC4)c2)on1	-0.65	.
COc1ccccc1OCCN1C(=O)C(O)(c2c(C)[nH]c3ccccc23)c2ccccc21 (configuration not stated)	1.9	-0.06
CCOC(=O)COc1ccc(F)cc1C(=O)c1ccn2nc(-c3ccc(F)cc3)cc2n1	0.46	-0.22
COc1ccc2c(=O)c(Oc3ccc(C(C)(C)C)cc3)coc2c1	-0.65	-0.13

Source: PubChem (Center for Chemical Genomics, University of Michigan)
